AID504770: growth inhibition of E. coli YBA685, primary screen, V. cholerae RctB inhibitors. E. coli YBA685 rctB-dependent plasmid, OD600 growth, 3 h; hits give low values. z-score (concentration not given with the values). actives 0.27% (n = 130,000);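 active means z-score under -2 on both plates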;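 further: wells of about 30 µL received 100 nL stock; score is relative to mean and SD of the test wells; the first replicate is given; strong numbers were not always called active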
CapD inh: Bacillus anthracis CapD inhibitors, primary screen, biochemical, fluorescence intensity; z-score (no concentration beside the values); actives 0.23% (n = 140,000); purified CapD enzyme, fluorescence intensity read-out; hits give low values; some hits fall short of the stated cut; CapD gamma-glutamyltranspeptidase (Bacillus anthracis Ames Ancestor);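 active means z-score under -4 in either of two replicates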;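 further: stock transfer was 100 nL into about 40 µL; score is relative to mean and spread of the plate; one replicate is shown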
* marks the source's active call; other numbers are inactive results; / = not tested or not shown. The list is partial; the hit share may differ from the screen's.

SMILES | AID504770 | CapD inh
CCN1C(=O)c2ccccc2S(=O)(=O)c2ccc(C(=O)N3CCCC3)cc21 | 0.3 | -0.45
Cc1ccc(C(=O)OCC(=O)c2ccccc2)s1 | -0.5 | /
CC(=O)N1CCOc2ccc(S(=O)(=O)N(C)c3cccc(C)c3)cc21 | 0.25 | -0.69
COc1ccc(C2NC(C(=O)O)Cc3c2[nH]c2ccccc32)cc1CN1CCN(c2ccc(F)cc2)CC1 (centres undefined) | / | 1.2
CCC(C(=O)NC(C)c1ccc2c(c1)OCO2)c1ccccc1 (centres undefined) | -0.75 | -0.035
CC1CCc2c(sc(/N=C/C=C/c3ccccc3)c2C#N)C1 (centres undefined) | 2.8 | -1.1
O=C(COC(=O)c1ccccc1)c1ccccc1 | -0.1 | 0.15
O=C(NCC1CCCO1)c1cc2sc3ccccc3c2s1 (centres undefined) | 1.8 | 4.5
O=C(CCCCn1cnc2ccccc21)c1ccccc1 | 0 | 0.36
COCCNC(=O)CN1CCC(c2ccc(OC)cc2)C(O)C1 (centres undefined) | -0.3 | /
C=CCNC(=O)COc1ccc(CCC)cc1 | -0.45 | -0.015
COc1ccc2ccccc2c1-c1c(OC)ccc2ccccc12 | 0.6 | -0.04
COc1ccc(N(C)S(=O)(=O)c2ccc3c(c2)CCN3C(=O)C2CCC2)c(OC)c1 | -0.15 | 0.15
COc1cc(Cl)cc(C(=O)O)c1OCC(=O)O | 0.15 | 0.74
Cc1noc(C)c1CSc1ncccc1C(=O)NC1=NCCS1 | 1.2 | /
CCOC(=O)CN1C(c2ccc(Br)cc2)=Nc2ccc(Br)cc2C1c1ccccc1 (centres undefined) | / | -0.92
CCn1nc(C)cc1C(=O)NC1CCN(Cc2c(F)cccc2Cl)CC1 | 0.55 | 1.4
O=C(COC(=O)c1sc2ccccc2c1Cl)NC1CCCC1 | -0.35 | 0.14
O=C1CCc2cc(S(=O)(=O)NC(Cc3ccccc3)C(=O)Nc3ccc4c(c3)OCCO4)ccc2N1 (centres undefined) | -0.5 | 0.39
Fc1ccc2nsnc2c1 | / | -0.025
CCOc1cc(/C=C2/SC(=Nc3ccccc3)NC2=O)ccc1OC | / | 0.09
CS(=O)(=O)c1ncc(Cl)cn1 | -1.4 | -0.32
O=C(NCC1CCCO1)C1CCC1 (centres undefined) | -1.3 | 0.12
CCNC(=O)C1CCN(c2nc3cccnc3s2)CC1 | 0.45 | -1.6
CCCC(=O)NC(=S)c1c(C)n(C)n(-c2ccccc2)c1=O | 0.75 | /
CC(=O)Nc1cc(C(=O)NC2CCC(C)CC2)ccc1S(=O)(=O)c1ccc(Cl)cc1 (centres undefined) | -0.45 | 0.27
Cc1ccc(S(=O)(=O)c2nnn(-c3cccc(Cl)c3)c2C)cc1 | 1.3 | 0.3
O=c1oc2ccccc2cc1-c1nc(-c2ccc(Cl)cc2)no1 | -0.7 | 1.7
Cc1nn(-c2ccccc2)c(Cl)c1C1C(C#N)=C(N)Oc2n[nH]c(-c3ccccc3)c21 (centres undefined) | / | -0.87
CCCCCOc1ccc2oc(=O)c3c(c2c1)CCCN3C(=O)CN1CCOCC1 | -1 | 1.8
COc1ccc(N2COc3ccc4c(C)cc(=O)oc4c3C2)cc1 | / | 50
COc1ccc(C)cc1NC(=O)C(C)N1CCOCC1 (centres undefined) | -0.8 | /
O=C(NC1CCCC1)C1=COCCO1 | -0.3 | -0.095
COc1ccccc1NC(=O)Cn1cnc([N+](=O)[O-])n1 | / | -0.37
CCOc1ccc(CCNC(=O)c2cn(CC)c3nc(C)ccc3c2=O)cc1OCC | -0.9 | -0.47
Cc1nnc(NC(=O)C23CC4CC(CC(C4)C2)C3)s1 | 0.3 | 0.46
CC(=O)Nc1cccc(-c2cc(=O)c3ccccc3o2)c1O | -0.75 | -0.99
CC(C)c1nc2ccc(Cl)cc2c2c1C(=O)N(NC(=O)c1ccc(N(C)C)cc1)C2=O | / | 0.22
COc1ccc(NC(=O)c2c(C)oc3c(F)c(F)c(F)c(F)c23)c(OC)c1 | 1.4 | -0.085
Oc1ccccc1OCCCCCOc1ccccc1O | 0.7 | 0.32
O=C1OC(c2ccccc2)/C(=C(\O)c2ccccc2)C1=O (centres undefined) | -0.5 | -3.3
Cc1sc2nc(C(=O)Oc3ccc(F)cc3)cc(N)c2c1C | -0.6 | 11
Cc1nn(CC(=O)N2CCCC2)c(=O)c2nn(-c3ccccc3)c(C)c12 | -0.3 | -0.44
O=C1CC(C(=O)Nc2ccccc2)N=C(Nc2nc3ccccc3s2)N1 (centres undefined) | -0.65 | -0.015
O=c1c(Cl)c(NCCc2ccccc2)cnn1-c1ccccc1 | -0.2 | 0.065
N#Cc1c(C(F)(F)F)cc(-c2ccccc2)nc1SCC(=O)N1CCCCC1 | -0.2 | -0.59
COc1cc(-c2nc3ccccc3c(=O)n2NC(=O)c2cc(C)c(C)cc2C)cc(OC)c1OC | / | -0.25
O=c1oc2ccccc2n1Cc1nnc(-c2ccccc2)o1 | -0.85 | -0.47
O=C(Oc1ccc(C=Nc2ccc(F)cc2)cc1)c1cccs1 | 0.05 | -0.36
Cc1ccc(C)n1CCN1CCN(S(=O)(=O)Cc2ccc(Cl)cc2)CC1 | 0.35 | -0.54
Remaining list, next part:
SMILES | AID504770 | CapD inh
Cc1cc(C(=O)CSC2=N/C(=C\c3ccco3)C(=O)N2c2ccc(OC(F)F)cc2)c(C)n1CC1CCCO1 (centres undefined) | 2.1 | /
O=C(c1ccccc1)c1ccc(F)cc1 | 0.05 | 1.1
CCN(CC)S(=O)(=O)c1ccc(C(=O)Nc2c3c(nn2-c2ccc([N+](=O)[O-])cc2)CS(=O)(=O)C3)cc1 | / | -0.57
NC(=O)C1c2ccccc2Oc2ccccc21 | 0.55 | 0.89
CC(C)(C)NC(=O)N1CCN(c2ncnc3scc(-c4ccccc4)c23)CC1 | / | -0.15
O=C(/C=C/c1ccccc1)N1CCN(c2ccc(N3CCCCC3)nn2)CC1 | -0.65 | /
O=C(Cc1c[nH]c2ccccc12)N/N=C/c1ccc(O)cc1Cl | / | -1.1
NC(=O)c1ccsc1NC(=O)c1ccc2c(c1)OCCO2 | -0.45 | 1.5
CCN(CC)C(=O)COc1ccc(-c2nnc(N3CCCCC3)c3ccccc23)cc1 | 1.9 | -0.36
COc1ccc(C(=O)N2CCC(C(=O)O)CC2)cc1 | -0.1 | /
Cc1ccccc1Nc1c(-c2ccc(O)cc2)nc2sccn12 | 0.45 | -0.26
CCCSc1nc2c(c(=O)n1CC)SC(C)C2 (centres undefined) | -0.15 | 0.005
CCOC(=O)c1nc(Nc2ccc(C)c(Cl)c2)c2ccccc2n1 | / | 15
COc1ccccc1N1C(=O)C(Cc2ccccc2)N=C1N(C)CCCc1ccco1 (centres undefined) | -0.3 | 2.4
COc1ccc(-c2cc(C(=O)N3CCCC3)no2)cc1S(=O)(=O)N1CCOCC1 | 0.95 | -0.83
O=C(NCc1ccco1)NC1CCCCC1 | / | -0.13
O=C1CS/C(=N/N=C/c2ccccc2)N1c1ccc(O)cc1 | -0.8 | 0.14
O=C(OCc1cccs1)C1CC1 | -0.05 | 0.24
NC(=O)C1CC(O)CN1c1nc(-c2cccnc2)nc2ccccc12 (centres undefined) | -0.8 | /
CCCCNC(=O)CSc1nc2ccccc2n1S(=O)(=O)c1ccc(NC(C)=O)c(Cl)c1 | / | 0.21
O=C(CC(c1ccccc1)c1ccccc1)N1CCOCC1 | 1.6 | 0.61
O=C(CSc1nc(NCCc2ccccc2)c2ccccc2n1)NCC1CCCO1 (centres undefined) | / | 1.8
CCOc1ccccc1NC(=O)NCCSCc1ccco1 | / | 0.02
N#CC1=C(N)SC(N)=C(C#N)C1Cc1ccccc1 | -0.75 | 0.21
CC(=O)NS(=O)(=O)c1ccc(N2C(=O)CC(Sc3nccc(C)n3)C2=O)cc1 (centres undefined) | -0.25 | 26
Cc1ccc([N+](=O)[O-])cc1S(=O)(=O)n1c(SCc2cccc([N+](=O)[O-])c2)nc2ccccc21 | / | -0.89
CCCCN(CC)S(=O)(=O)c1ccc(C(=O)Nc2nnc(-c3ccc(Cl)s3)o2)cc1 | / | -0.27
COc1ccc(/C=N/c2oc(-c3cccs3)c(-c3cccs3)c2C#N)cc1 | 0.75 | /
CN(C)C=NC(=O)CN1CCCC1=O | 2.4 | 0.23
S=c1[nH]nc(-c2cccnc2)n1/N=C/C=C/c1ccco1 | 0 | -2.5
COC(=O)Nc1cc(OC)cc(C(F)(F)F)c1 | 0.4 | 0.17
NC(=O)c1ccc2cccnc2n1 | / | -0.14
O=C1CNc2c(c(=O)oc3ccccc23)N1 | -0.5 | 29
Cc1ccc(C)c(/C(O)=C2\C(=O)C(=O)N(CCN(C)C)C2c2cccc(Br)c2)c1 (centres undefined) | 0.6 | -2.1
O=C(Nc1ccccc1C(F)(F)F)C1Sc2nnc(-c3ccccc3)n2NC1c1ccc(F)cc1 (centres undefined) | 0.3 | 0.52
COC(=O)c1[nH]c2sc3c(c2c1N)CCCC3 | 0.15 | -0.71
CCCN(Cc1nnc(-c2ccccc2Cl)o1)C(=O)c1nc(-c2ccccc2)n(-c2ccccc2)n1 | -0.6 | /
CN1C(=O)c2ccccc2C(C(=O)NCc2ccco2)C1c1cn(C)c2ccccc12 (centres undefined) | 2.8 | -1.7
COc1cccc(C(=O)N2CCN(Cc3ccccc3C(F)(F)F)CC2)c1OC | -0.25 | -0.45
COc1cc(NC(=O)c2cc(S(=O)(=O)N3CCOCC3)ccc2Br)c(C(=O)O)cc1OC | / | 0.05
O=S(=O)(/N=C(\N=C1CCN(c2ccccc2)N1)c1ccccc1)c1ccccc1 | 0.55 | /
O=C(OCc1ccc2c(c1)OCO2)c1cc2ccccc2oc1=O | -0.45 | -0.05
COc1cc(C2NC(=O)NC(C)=C2C(=O)OCc2ccc(C)cc2)cc(OC)c1OC (centres undefined) | / | 0.71
O=C(O)CS/C(=N/S(=O)(=O)c1ccccc1)Nc1cccc(C(F)(F)F)c1 | / | 0.45
CC(C)S(=O)(=O)c1cnc(-c2ccc(Cl)cc2)nc1N | 0.3 | 0.17
CCc1ccc(NC(=O)c2ccccc2N)cc1 | -0.55 | 48
CCOc1cc(C2C(C#N)=C(N)Oc3n[nH]c(-c4cc(OC)c(OC)c(OC)c4)c32)ccc1OC(=O)N1CCOCC1 (centres undefined) | / | -0.52
COc1ccc(C(=O)N(CCc2ccccc2)Cc2ccccc2)c(OC)n1 | -0.9 | 46
O=S(=O)(c1cc(C(F)(F)F)cc(C(F)(F)F)c1)n1cc2c(n1)CCOC2 | 2 | -0.22
O=C(Cc1csc(-c2ccccc2)n1)NNC(=O)OCc1ccc(/C=C/c2ccccc2)cc1 | / | 20
Next part
SMILES | AID504770 | CapD inh
Cc1cccc(-c2ocnc2C(=O)N2CCN(C(=O)c3cccs3)CC2)c1 | -0.45 | /
COc1ccc(-n2ncc(C(=O)N3CCN(C)CC3)c2C)cc1 | 0.5 | 0.39
Cc1ccc(N2C(=O)CC(Sc3ccccc3C(=O)O)C2=O)c(C)c1 (centres undefined) | 0.35 | 0.05
COc1ccc(C(N)=CC(=O)C(C)(C)C)cc1 | 1.1 | -2.8
CS(=O)(=O)c1ccc(CCC(=O)Nc2ccc(C(F)(F)F)cc2)cc1 | / | 0.24
CC1(C)OC2C(O1)[C@@H](CO)O[C@H]2n1cnc2c(N)ncnc21 (some centres undefined) | -0.65 | 0.35
CCOC(=O)c1csc(Cn2nc(C)c(Br)c2C)n1 | 0.4 | -0.31
C=CCN(c1ccccc1)S(=O)(=O)c1ccc(F)c(C(=O)Nc2ccc(C(C)C)cc2)c1 | -0.3 | -0.29
O=C(CN1C(=O)COc2ccc(Cl)cc21)N1CCCC1 | -0.5 | 0.03
COc1ccc(N=Cc2ccccc2OCc2ccccc2)cc1 | -0.7 | 1.4
N=C(N)SCC1COc2ccccc2O1 (centres undefined) | 0.3 | -0.005
CC(C)C(NC(=O)OCCc1ccc(Cl)cc1)C(=O)OCc1ccc([N+](=O)[O-])cc1 (centres undefined) | / | -1.3
Cc1cc(-c2nnc(CSc3nc4ccc(Cl)cc4[nH]3)o2)c(C)o1 | 0 | /
O=C(CSc1ccccc1)N1CCCCC1 | 0.75 | 0.34
O=C(c1ccccc1)N1N=C(C(F)(F)F)CC1(O)c1ccccc1O (centres undefined) | / | -0.76

As a working copy, part of the list above.
SMILES | AID504770 | CapD inh
O=C(Cc1csc(-c2ccccc2)n1)NNC(=O)OCc1ccc(/C=C/c2ccccc2)cc1 | / | 20
Cc1cccc(-c2ocnc2C(=O)N2CCN(C(=O)c3cccs3)CC2)c1 | -0.45 | /
COc1ccc(-n2ncc(C(=O)N3CCN(C)CC3)c2C)cc1 | 0.5 | 0.39
Cc1ccc(N2C(=O)CC(Sc3ccccc3C(=O)O)C2=O)c(C)c1 (centres undefined) | 0.35 | 0.05
COc1ccc(C(N)=CC(=O)C(C)(C)C)cc1 | 1.1 | -2.8
CS(=O)(=O)c1ccc(CCC(=O)Nc2ccc(C(F)(F)F)cc2)cc1 | / | 0.24
CC1(C)OC2C(O1)[C@@H](CO)O[C@H]2n1cnc2c(N)ncnc21 (some centres undefined) | -0.65 | 0.35
CCOC(=O)c1csc(Cn2nc(C)c(Br)c2C)n1 | 0.4 | -0.31
C=CCN(c1ccccc1)S(=O)(=O)c1ccc(F)c(C(=O)Nc2ccc(C(C)C)cc2)c1 | -0.3 | -0.29
O=C(CN1C(=O)COc2ccc(Cl)cc21)N1CCCC1 | -0.5 | 0.03
COc1ccc(N=Cc2ccccc2OCc2ccccc2)cc1 | -0.7 | 1.4
N=C(N)SCC1COc2ccccc2O1 (centres undefined) | 0.3 | -0.005
CC(C)C(NC(=O)OCCc1ccc(Cl)cc1)C(=O)OCc1ccc([N+](=O)[O-])cc1 (centres undefined) | / | -1.3
Cc1cc(-c2nnc(CSc3nc4ccc(Cl)cc4[nH]3)o2)c(C)o1 | 0 | /
O=C(CSc1ccccc1)N1CCCCC1 | 0.75 | 0.34
O=C(c1ccccc1)N1N=C(C(F)(F)F)CC1(O)c1ccccc1O (centres undefined) | / | -0.76
